High-throughput results: PubChem BioAssay, several laboratories
HNF4A DNA FP: change in binding of human HNF4 alpha to DNA. 360,000 tested, 0.3% active. HNF4a-FITC DNA binding, fluorescence polarization, 1 h. AID 1224865. P41235. activity change, % at 10 µM; in the data active means activity change above about 30%, passing the limit was not always enough;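 further: controls were the assay level and a saturating level of protein; the project sought stronger binding though the title names inhibitors; some compounds called inactive have numbers as strong as hits; positive values seem to mean higher polarization but the record does not say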
LANA-H2B inh: blocks KSHV LANA binding to histone H2A/H2B. Q9QR71. cell-free LANA-H2A/H2B peptide, fluorescence polarization. inhibition, % (test concentration not listed). 320,000 tested, 0.6% active; in the data active means inhibition mostly above about 10%, no sharp cut-off; inactive means mostly below about 6.7%;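 further: stock transfer was 7.5 nL into about 10 µL; 0% = median of vehicle wells and 100% = median of positive control wells; one replicate is shown; the record names a cut of 25% in any replicate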
Target sequence (Q9QR71 whole entry, looked up): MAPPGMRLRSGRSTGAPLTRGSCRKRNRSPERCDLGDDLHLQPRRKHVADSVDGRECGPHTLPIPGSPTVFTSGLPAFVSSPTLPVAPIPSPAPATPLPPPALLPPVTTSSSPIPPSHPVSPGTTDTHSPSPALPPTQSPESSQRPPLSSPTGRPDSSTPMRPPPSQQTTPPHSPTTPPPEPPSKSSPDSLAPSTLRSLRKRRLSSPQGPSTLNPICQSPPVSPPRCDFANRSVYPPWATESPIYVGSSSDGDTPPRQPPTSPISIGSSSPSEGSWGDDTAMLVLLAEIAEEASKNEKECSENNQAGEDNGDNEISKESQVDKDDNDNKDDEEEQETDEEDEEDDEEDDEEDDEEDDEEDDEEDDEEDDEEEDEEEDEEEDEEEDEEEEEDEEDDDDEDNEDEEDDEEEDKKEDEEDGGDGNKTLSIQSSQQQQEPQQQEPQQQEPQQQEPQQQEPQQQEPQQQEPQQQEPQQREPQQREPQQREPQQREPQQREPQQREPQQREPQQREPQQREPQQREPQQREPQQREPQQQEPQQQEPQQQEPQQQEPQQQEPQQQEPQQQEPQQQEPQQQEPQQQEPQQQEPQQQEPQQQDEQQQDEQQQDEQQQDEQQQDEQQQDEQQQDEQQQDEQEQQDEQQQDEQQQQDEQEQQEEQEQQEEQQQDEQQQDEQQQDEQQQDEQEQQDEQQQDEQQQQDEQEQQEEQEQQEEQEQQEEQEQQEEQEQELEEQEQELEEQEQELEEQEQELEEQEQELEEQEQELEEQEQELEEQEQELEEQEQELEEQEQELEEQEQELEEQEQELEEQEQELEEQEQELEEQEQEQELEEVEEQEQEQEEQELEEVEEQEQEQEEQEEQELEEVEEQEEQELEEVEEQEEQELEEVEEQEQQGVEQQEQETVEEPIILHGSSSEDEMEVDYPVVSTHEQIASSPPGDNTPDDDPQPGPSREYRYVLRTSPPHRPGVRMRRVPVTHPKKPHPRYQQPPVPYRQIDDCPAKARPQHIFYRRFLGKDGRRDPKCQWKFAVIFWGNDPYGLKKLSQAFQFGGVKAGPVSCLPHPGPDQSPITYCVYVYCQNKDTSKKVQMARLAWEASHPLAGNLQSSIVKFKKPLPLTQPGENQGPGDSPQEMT
Bfl-1 A1 inh: inhibitors of the anti-apoptotic protein A1, read as caspase activation; caspase activation, % (test concentration not listed); 330,000 tested, 0.066% active; MEF A1-2A-BIM cells, Caspase-Glo 3/7 luminescence, 3 h; percent of clofoctol response, vehicle zero;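 active means over half of replicate activation scores above 10%, or exactly half above 10 with the replicate mean above 10; inconclusive means replicate mean below 10 yet half the replicates above 10; inactive means over half of replicates below 10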;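 further: wells of about 30 µL received 50 nL stock; many hits fall short of the cut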
B2AR ag: agonists of human beta-2 adrenergic receptor inducing internalization; P07550; Am2.2-beta2AR cells, FAP receptor internalization, flow cytometry; reference of the scale not given here; response, % (no concentration beside the values); 340,000 tested, 0.43% active;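 active means response above a set limit, near 3 SD of response in nonfluorescent compounds, cut at about 42% in these data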;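 further: stock transfer was 100 nL into about 11 µL; a reference agonist was the positive control; negative values mostly stem from fluorescent compounds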
UCH37 DUB inh: blocks the human deubiquitinase UCH37. 330,000 tested, 0.33% active. purified proteasome/UCH37, Ub-AMC cleavage fluorescence. inhibition, % (no concentration beside the values). Q9Y5K5;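 active means mean of two replicates above 20%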;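 further: 0% = compound-free wells with enzyme and 100% = wells lacking proteasome; stock transfer was 100 nL into about 20 µL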
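Material: human UCH37 enzyme supplied as purified proteasome complex / Amount: 0.15 nM proteasome as dispensed / Buffer or medium: pH 7.4 Tris-HCl (50 mM) with ovalbumin, ATP-MgCl2, DTT / Times: preincubation 30 min, reaction 25 min, room temperature / Technique: AMC fluorescence from Ub-AMC cleavage, excitation 355 nm, emission 460 nm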
Vif A3G: HIV-1 Vif–A3G interaction blockers – biochemical, TR-FRET, GST-Vif 1-94, biotin-A3G peptide, dose response retest, primary screen (AID 1117319). TR-FRET GST-Vif / biotin-A3G peptide binding; higher % means a stronger effect; test concentration not given here; strong numbers were not always called active. inhibition, %, or IC50 in µM where a hit was titrated. 260,000 tested, 0.57% active;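 active means above the screen mean plus three standard deviations and confirmed in dose response; inconclusive means results disagree or hit not tested in dose response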;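 further: Vif residues 1-94 fused to GST binding biotinylated APOBEC3G peptide 110-148; 0% = full assay without inhibitor and 100% = GST in place of GST-Vif; retest series ran down from 100 µM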
E coli growth: blocks Escherichia coli growth; OD600 absorbance (concentration not given with the values); OD600, 23 h; hits give low values; 330,000 tested, 0.21% active;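 active means OD600 absorbance below the run mean of sample wells minus 3.6 SD, in any replicate, cut at about 0.56 in these data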;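 further: stock transfer was 300 nL into about 60 µL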
Active calls of the source: *; ? = inconclusive; nt = not tested or not shown; + = active, no number; & = joins results of further samples.

Values in the order: E coli growth, HNF4A DNA FP, B2AR ag, Vif A3G, UCH37 DUB inh, Bfl-1 A1 inh, LANA-H2B inh
> Cn1nc([N+](=O)[O-])nc1Sc1ccc(Cl)cc1
 : 0.66, -4.9, 1, nt, 4.8, -1.8, 2.2
> CCOC(=O)C1CCN(CCCSc2ccccc2)CC1
 : nt, -2.0, 7, 2%, nt, 0.7, -1.7
> Cc1cccc(N2CCN(S(=O)(=O)c3ccc4c(c3)CCCN4C(=O)C3CCC3)CC2C)c1 (stereo not drawn)
 : 0.7, -0.8, -9, nt, -2.1, -0.5, 2.8
> CC(C)(C)CC(C)(C)c1ccc(O)c(CN2CCN(CCC#N)CC2)c1
 : 0.64, 3.2, 4, 2%, 4.0, 1.0, -1.8
> CCOc1cc(NC(=S)NCCCN2CCOCC2)c(OCC)cc1NC(=O)C1CCCCC1
 : 0.67, 3.8, -6, -1%, 1.9, -0.4, 0.9
> O=C(Oc1ccccc1Cl)c1ccccc1
 : 0.69, 0.0, 0, 1%, 1.3, nt, nt
> O=C(NN=C1CCCC1)NC1CCCCC1
 : 0.67, 1.2, -7, nt, 1.1, 0.9, nt
> CCCOc1ccc(N2C(=O)CC(SCC(N)C(=O)OCC)C2=O)cc1 (stereo not drawn)
 : 0.69, 28, -7, nt, 1.5, 0.5, -1.0
> CN1CCN(/N=C/c2nc(-c3ccccc3Cl)n3ccccc23)CC1
 : nt, -0.4, 3, 9%, nt, -1.7, -0.3
> COc1ccc(CCC(=O)NNC(=O)Nc2ccccc2Cl)cc1
 : 0.62, -3.1, 2, nt, -0.5, 0.3, -0.8
> CCOC(=O)c1c(C#N)c(SCC(=O)Nc2ccc(OC)cc2)nc2c1CN(CC)CC2
 : 0.68, -3.3, 0, 13%&20%, 3.1, -0.5, 2.0
> COc1ccc(Oc2ncc(CN3CCN(c4ccccc4)CC3)s2)cc1
 : 0.72, -0.6, -4, 5%, -1.2, 0.0, 0.5
> O=C(COc1ccccc1)NCCc1nc2ccccc2[nH]1
 : 0.69, 5.3, -8, -4%, 0.8, 0.0, 0.2
> Cc1ccc(/C=N/NC(=O)CSc2ccccn2)o1
 : nt, -0.9, 9, 3%, nt, 0.6, 11
> CC[C@]1(c2ccccc2)C(=O)N(C(=O)OC)N1C(=O)OC
 : nt, -1.3, 18, nt, nt, 0.7, -5.2
> O=P1(Nn2cnnc2)C=C(c2ccccc2)OC(c2ccccc2)=C1
 : 0.66, 0.2, -4, 1%, 5.5, -0.1, 0.1
> CC(=O)n1cc([C@H]2C=C(C(=O)O)O[C@@H](OCCCCO)C2)c2ccccc21
 : nt, 1.0, 4, 5%, 1.1, 2.3, 0.5
> COc1ccc(NC(=O)CCC(=O)c2cccs2)c(OC)c1
 : 0.67, -1.2, -10, nt, 0.7, -0.5, -3.5
> Cc1c(Br)c([N+](=O)[O-])nn1CC(=O)Nc1ccccn1
 : 0.64, -1.9, -13, -3%, 3.4, 0.3, -3.1
> Cc1ccc(S(=O)(=O)C2(C(=O)NC3CCCCC3C)CC2)cc1 (stereo not drawn)
 : 0.69, 0.6, 1, 10%, 4.2, -0.3, 4.3

Going on with the list.
Values in the order: E coli growth, HNF4A DNA FP, B2AR ag, Vif A3G, UCH37 DUB inh, Bfl-1 A1 inh, LANA-H2B inh
> Cc1cc(=O)oc2c3c(cc(OCC(=O)N4CCC(C(=O)O)CC4)c12)OC(C)(C)CC3
 : 0.73, -1.3, 0, nt, -478, 0.4, -2.4
> COc1ccc(CN2CCN(c3ccccc3OC)CC2)c(OC)c1
 : 0.67, -2.4, 5, -3%, 3.2, 0.3, -1.2
> O=C(NCC1CCCO1)c1ccccc1-c1nc(-c2ccccc2)no1 (stereo not drawn)
 : 0.72, -3.1, -6, 7%, -0.3, 0.5, -0.3
> N#Cc1ccc(C(=O)OCC(=O)NC(=O)NC2CCCCC2)cc1
 : 0.69, -4.2, -8, -1%, 3.6, nt, nt
> CCOC(=O)N1CCN(C(=O)c2cccc(S(=O)(=O)Nc3ccc(OC)cc3)c2)CC1
 : 0.68, -0.1, 0, 0%, 2.9, -0.3, 1.3
> CSc1nnc(NC(=O)c2cccc(S(=O)(=O)N3CCOCC3)c2)s1
 : 0.71, 4.5, 8, nt, 9.6, -4.2, 3.0
> CC(=O)Nc1ccc(N2S(=O)(=O)c3ccccc3S2(=O)=O)cc1
 : 0.71, 3.1, -9, 18%, 3.0, 1.0, -1.7
> COC(=O)c1c(-c2ccccc2)csc1N1C(=O)Nc2ccccc2N1O
 : 0.7, 0.7, 5, -7%, 1.9, -0.2, 2.4
> CN1/C(=C/C(=O)C2CC2)C(C)(C)c2ccccc21
 : 0.71, 4.3, 1, -2%, -37, -1.2, -0.4
> Oc1ccc(/C=N/Nc2nc(-c3cccnc3)nc3ccccc23)c(O)c1
 : nt, 36*, -12, nt, nt, -0.3, 3.8
> CC1Cc2nc(SCC(=O)Nc3ccccc3F)n(C)c(=O)c2S1 (stereo not drawn)
 : 0.78, -0.8, -22, 12%, 6.3, 0.1, 0.4
> Cc1ccc(-c2c[n+](CC(=O)c3cccs3)c3n2CCC3)cc1
 : 0.69, 1.0, 2, 18%, 5.7, -0.1, -3.0
> COc1ccc(/C=C/C(=O)OCC(=O)Nc2ncc(Cl)cc2Cl)cc1
 : 0.71, 4.2, 9, -10%, -6.3, -0.6, -4.2
> CCOC(=O)c1c(NC(=O)c2nn(CC)cc2Br)c(C#N)nn1-c1ccccc1
 : 0.75, 1.9, -12, 5%, -0.8, 1.1, -0.4
> CCN(CC(=O)Nc1ccccc1OC)Cc1csc(CC(=O)Nc2ccc(C)cc2)n1
 : 0.66, -1.3, -1, -6%, 2.1, 1.9, 3.1
> COCCOC(=O)C1=C(C)N=C2SCCC(=O)N2C1c1ccc(OC(=O)c2ccco2)cc1 (stereo not drawn)
 : 0.72, -1.2, 3, 0%&9%, 8.1, 0.3, -7.1
> O=C(Nc1ccccc1C(=O)O)c1cccc(NC(=O)c2ccco2)c1
 : 0.7, 1.9, -1, nt, 4.0, -0.2, -2.8
> CC(C)N1C/C(=C/c2cccnc2)C(=O)/C(=C/c2cccnc2)C1
 : 0.69, -3.0, 17, nt, -0.4, nt, nt
> COc1ccc(-c2cnc(N)nc2-c2ccc(OC)cc2O)cc1
 : 0.73, 0.1, -5, -34%, -0.7, 0.2, -0.7
> CC(C)[C@H](NC(=O)[C@H](Cc1ccccc1)n1c(=O)[nH]c2ccccc2c1=O)C(=O)N[C@@H](Cc1ccccc1)C(=O)O
 : 0.74, 0.0, -8, nt, 5.5, -0.2, 2.7

Remaining list, next part
Values in the order: E coli growth, HNF4A DNA FP, B2AR ag, Vif A3G, UCH37 DUB inh, Bfl-1 A1 inh, LANA-H2B inh
> CN(C)S(=O)(=O)N(Cc1ccc(Br)cc1)c1ccccc1
 : 0.71, -0.7, 0, 26%, 3.9, 1.3, 2.2
> CC(c1ccco1)N(C(=O)COc1ccc(Cl)cc1Cl)c1ccccn1 (stereo not drawn)
 : 0.69, -4.1, 3, ?, 6.8, 1.4, -7.9
> O=C1CCCCCN1Sc1ccccc1
 : 0.68, 0.7, 24, 0%, 6.1, -0.3, 0.9
> O=C(Nc1csnn1)c1csnn1
 : nt, -0.1, -1, 4%, nt, 0.8, -2.3
> Fc1ccc(CNC(=S)Nc2ccc(Cl)cc2)cc1
 : 0.63, -0.2, -6, -5%, -3.5, 0.8, -2.4
> CCCCN(C)CC(O)Cn1cc(/C=C/C(=O)c2cccs2)c2ccccc21 (stereo not drawn)
 : nt, 24, -36, 8%, 2.0, -1.0, +
> Cc1ccc(-n2nc3c(=S)[nH]nc(C)c3c2C)cc1
 : 0.76, 2.7, 3, -84%, 1.3, 0.7, 0.5
> CC(C)(C)NC(=O)C(c1ccc(F)cc1)N(C(=O)CCC(=O)Nc1ccccn1)C1CCCC1 (stereo not drawn)
 : 0.65, 0.3, -1, -6%, 3.4, 0.1, -1.2
> COc1cc(NC(=O)CN(c2ccc(C)cc2)S(=O)(=O)c2c(C)n[nH]c2C)cc(OC)c1
 : 0.7, 4.3, 0, -4%, 4.0, 0.0, 2.4
> CCC(OC(=O)CN1C(=O)C(=O)c2ccccc21)C(=O)Nc1ccc(S(N)(=O)=O)cc1 (stereo not drawn)
 : 0.66, 3.0, 7, 23%, 6.1, 0.7, -7.4
> O=C(CN(c1ccccc1)S(=O)(=O)c1ccccc1[N+](=O)[O-])Nc1ccccc1C(=O)N1CCOCC1
 : 0.68, -1.4, 6, nt, 0.8, -0.1, -2.6
> Cc1ccc(O)c(-c2cc(-c3ccccc3F)[nH]n2)c1
 : 0.75, 6.7, -1, 0%, -0.5, ?, 5.1
> COc1cc(Br)c(CNc2cc(C)ccc2C)cc1OC
 : 0.68, -4.6, 4, 85%, 3.3, 2.6, -2.9
> Cc1ccc(S(=O)(=O)N2CCCCC2)cc1C(=O)NCCC1=CCCCC1
 : 0.71, 3.7, 8, -1%, -1.4, 0.2, -4.7
> O=C1CC(c2ccccc2)Cc2nc(NCc3ccco3)ncc21 (stereo not drawn)
 : 0.65, -1.0, -6, 4%, 5.1, -1.1, -3.0
> COc1ccc(-n2cc3ccc([N+](=O)[O-])cc3n2)cc1
 : 0.64, 3.0, 6, 4%, -0.1, -6.4, -0.8
> CC(=O)c1c(C(=O)O)c2ccccc2[nH]c1=O
 : 0.68, 1.5, -2, ?, -66, 0.2, 4.8
> N#Cc1ccc(-c2ccc(OCC(=O)NCCCN3CCCC3=O)cc2)cc1
 : 0.68, -0.1, 5, -8%, -0.7, -6.8, 3.5
> CCCN1C(=O)/C(=C/c2nc3ccccc3c(=O)[nH]2)c2cc(C)ccc21
 : 0.7, 0.0, 29, 0%, 7.0, -0.2, 1.8
> O=C(NCc1cccnc1)c1ccc(CS(=O)(=O)c2ccc(Br)cc2)o1
 : 0.73, 1.9, 6, -7%, 6.1, 0.1, 0.1

Additional results
Values in the order: E coli growth, HNF4A DNA FP, B2AR ag, Vif A3G, UCH37 DUB inh, Bfl-1 A1 inh, LANA-H2B inh
> CN(CC(=O)Nc1ccc(Cl)c(C(F)(F)F)c1)C(=O)c1cn2ccccc2n1
 : 0.66, -1.4, 1, 5%, 4.3, -2.1, nt
> Cc1ccc(S(=O)(=O)N(C)CCCC(=O)Nc2cc(C)ccc2C)cc1
 : 0.73, -2.4, 2, nt, 7.3, -0.1, 1.8
> C/C(=N/NC(=O)c1ccn(C)n1)c1ccncc1
 : nt, 1.8, -4, -4%, nt, 0.6, -11
> O=C(c1cc(COc2ccc(F)cc2Cl)on1)N1CCN(c2cnccn2)CC1
 : 0.66, 1.4, 1, 20%, -39, 0.0, -3.2
> Cn1cccc1C(=O)C(=O)Nc1ccc(F)c(F)c1
 : 0.72, 2.9, -19, 5%, 7.3, -8.9, -2.4
> COC(=O)/C(=C\Nc1ccccc1)NC(=O)c1ccc(Cl)cc1Cl
 : 0.75, -2.1, -3, 67%, 2.0, -1.5, -2.3
> CCN(CC)CCNC(=O)C(=O)NCC1OCCN1C(=O)c1ccc2c(c1)OCO2 (stereo not drawn)
 : nt, nt, nt, -9%, nt, 2.8, -7.4
